rRNA inh HTS: inhibits bacterial ribosomal RNA function over humanized ribosomes | GFP signal change (wild-type ribosome), % (test concentration not listed) | E. coli WT GFP vs humanized-ribosome RFP mutants, fluorescence, 24 h; stronger effect = lower value; DMSO median 0, no signal -100 | 350,000 compounds, 1.6% hits;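 active = significant combined selectivity score with lowered wild-type GFP, culture density cut under 30%, mutant RFP and density less affected; inactive = any of these conditions unmet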; also: one replicate is shown; some compounds called inactive have numbers as strong as hits
rRNA inh HTS OD600: also measured in rRNA inh HTS; calls as there; OD600 change, %; measured here: OD600 growth;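 optical density of the mix in the first replicate; 0 = DMSO median and -100 = no signal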
rRNA inh HTS RFP: recorded beside rRNA inh HTS, whose call it bears; RFP signal change, %; measured here: RFP humanized mutant strains;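 first replicate; 0 = DMSO median and -100 = no signal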
* = called active by the depositor; & = joins results of further samples. Only part of the results is shown; rates above refer to the full screens.

SMILES	rRNA inh HTS	rRNA inh HTS OD600	rRNA inh HTS RFP
CCCC#Cc1ccc2c(c1)O[C@@H](CN(C)C(=O)Nc1ccccc1F)[C@H](C)CN([C@@H](C)CO)S2(=O)=O	-6.2	-11.6	1.7
C[C@@H]1CN([C@@H](C)CO)C(=O)c2cc(NC(=O)Nc3ccc4c(c3)OCO4)ccc2O[C@H]1CN(C)Cc1ccc2c(c1)OCO2	0.2	-2.2	3.4
NCC[C@H]1CC[C@H](NC(=O)C2CC2)[C@@H](CO)O1	1.7	4.0	-0.1
CC(C)c1cn(CC[C@@H]2CC[C@H](NC(=O)Nc3cc(Cl)cc(Cl)c3)[C@@H](CO)O2)nn1	-16.6	-27.1	0.6
CO[C@H]1CN(C)C(=O)c2cc(NC(C)=O)ccc2OC[C@H](C)N(C(=O)CN(C)C)C[C@@H]1C	2.1	1.6	-0.8
COC(=O)[C@@]12C[C@@H](CC(=O)N3CCCCC3)C(=O)N(Cc3cccc4ccccc34)C1=CCC(C)(C)C2	15.2	12.8	3.3
COc1ccc(C#Cc2ccc([C@@H]3[C@H]4CN(S(=O)(=O)c5cn(C)cn5)CCCCN4[C@H]3CO)cc2)cc1	-4.5	-35.7	21.1
CCC1(c2ccccc2)CN(C)C1=O (stereo unspecified)	-1.9	3.2	-0.8
COc1ccc(NC(=O)N(C)C[C@H]2Oc3c(NC(=O)c4cnccn4)cccc3C(=O)N([C@H](C)CO)C[C@@H]2C)cc1	3.6	2.1	-0.6
Cc1noc(C)c1S(=O)(=O)Nc1ccc2c(c1)CC(=O)N([C@@H](C)CO)C[C@@H](C)[C@H](CN(C)S(=O)(=O)c1cn(C)cn1)O2	0.4	7.4	-1.6
O=C(Nc1ccc2c(c1)[C@H]1C[C@@H](CC(=O)N3CCc4ccccc4C3)O[C@@H](CO)[C@H]1O2)Nc1ccccc1F	-2.6	-24.3	7.7
Cc1noc(C)c1S(=O)(=O)N(C)C[C@H]1OCCCC[C@@H](C)Oc2ccc(NC(=O)Nc3ccc4c(c3)OCO4)cc2C(=O)N([C@@H](C)CO)C[C@H]1C	-1.2	-1.6	-1.0
CC(C)CC1C(=O)N(Cc2cn(CCC3OCCCO3)nn2)CCS(=O)(=O)N1Cc1ccc(-c2ccccc2)cc1 (stereo unspecified)	-4.1	-9.4	4.1
CCCNC(=O)C1(C)CCN(Cc2cc(-c3ccccc3)on2)C1 (stereo unspecified)	-0.4	-11.9	-1.8
Cc1ccc(S(=O)(=O)N(C)C[C@@H]2OCCCC[C@H](C)Oc3ccc(NC(=O)C4CCCCC4)cc3C(=O)N([C@H](C)CO)C[C@H]2C)cc1	-4.4	2.5	0.5
CCOCCC(=O)Nc1ncc(S(=O)(=O)c2ccc([N+](=O)[O-])cc2)s1	27.2	26.8	4.5
C[C@@H]1CCCCO[C@H](CN(C)Cc2ccccc2)[C@H](C)CN([C@H](C)CO)C(=O)c2cc(NC(=O)Nc3ccc(F)cc3)ccc2O1	-30.2	-47.4	35.0
COc1ccc(NC(=O)Nc2ccc3c(c2)CC(=O)N([C@H](C)CO)C[C@@H](C)[C@H](CN(C)S(=O)(=O)c2ccc(Cl)cc2)O3)cc1	-2.9	-4.2	-1.6
O=C(NCCc1ccncc1)[C@H]1[C@H](CO)[C@H]2Cn3c(cccc3=O)[C@@H]1N2Cc1ccccc1F	1.9	5.2	0.9
O=C(C[C@H]1C[C@@H]2c3cc(NC(=O)c4cccnc4)ccc3O[C@@H]2[C@H](CO)O1)NCc1ccncc1	5.1&4.3	8.8&7.8	0.5&-3.1
C[C@H]1CN([C@@H](C)CO)C(=O)c2cc(NS(=O)(=O)c3cn(C)cn3)ccc2O[C@H]1CN(C)C(=O)Nc1ccc(F)cc1	3.6	3.3	-3.1
CN1c2ccc(-c3cccc(C#N)c3)cc2[C@@H]2[C@@H](CCN2C(=O)CN2CCOCC2)[C@@H]1CO	-7.7	-6.0	-3.1
CCCC(=O)Nc1ccc2c(c1)OC[C@H](C)N(C(=O)c1cccnc1)C[C@@H](C)[C@H](OC)CN(C)C2=O	0.7	11.9	0.1
C[C@@H]1CN([C@@H](C)CO)C(=O)c2cc(C#CC3CCCC3)cnc2O[C@H]1CN(C)C(=O)C1CCCCC1	0.1	-4.0	1.1
COCC(=O)N1CC2(CCN(C(=O)c3cccnc3)CC2)c2c([nH]c3cc(OC)ccc23)[C@H]1CO	4.5	16.1	-2.1
CCOC(=O)N1CCN(C(=O)C[C@@H]2C[C@@]3(C(=O)OCC)CCC=C3N(Cc3ccccc3)C2=O)CC1	12.5	7.6	2.3
CC(=O)N(C)C[C@H]1Oc2ncc(-c3cccc(F)c3)cc2C(=O)N([C@@H](C)CO)C[C@@H]1C	-2.3	-4.1	1.5
COc1ccc(C2=Nc3ccccc3N(C(=O)c3ccc4ncccc4c3)C2C(=O)NC2CCCC2)cc1 (stereo unspecified)	-3.3	3.4	-3.0
Cc1noc(C)c1S(=O)(=O)Nc1ccc2c(c1)CC(=O)N([C@@H](C)CO)C[C@H](C)[C@H](CN(C)S(=O)(=O)c1ccc(F)cc1)O2	1.5	-3.4	1.3
COC(=O)C1CCN(C2CN(Cc3ccc(C)cc3)S(=O)(=O)C2)CC1 (stereo unspecified)	3.7	6.7	3.1
C[C@H]1CN([C@@H](C)CO)S(=O)(=O)c2ccc(-c3ccccc3)cc2O[C@@H]1CN(C)C(=O)C1CCC1	-4.6	-14.8	2.5
C[C@@H]1CN([C@@H](C)CO)C(=O)Cc2cc(NC(=O)c3ccncc3)ccc2O[C@@H]1CN(C)C(=O)NC1CCCCC1	2.4	0.1	-2.0
Cc1noc(C)c1NC(=O)Nc1ccc2c(c1)CC(=O)N([C@@H](C)CO)C[C@@H](C)[C@H](CN(C)C(=O)NC(C)C)O2	1.2	6.8	-3.4
COc1ccc(-c2ccc3[nH]c4c(c3c2)CCN2C[C@H]3[C@H](C)ON(C)[C@H]3C[C@@H]42)cc1	-8.4	-11.2	3.7
CN(C)CC(=O)N[C@H]1CC[C@H](CCn2cc(C3CC3)nn2)O[C@@H]1CO	0.5	0.2	-1.5
CCC(=O)N1[C@H](C(=O)N2CCCCC2)[C@@H](CO)[C@@H]2Cn3c(cccc3=O)[C@@H]21	2.1	3.6	0.7
CCCNC(=O)Nc1ccc2c(c1)OC[C@H](C)N(CCC(F)(F)F)C[C@@H](C)[C@H](OC)CN(C)C2=O	-5.5	-7.9	1.1
NCC[C@@H]1CC[C@@H](NS(=O)(=O)c2ccc(Cl)cc2)[C@H](CO)O1	-0.3	2.2	1.2
Cc1ccc(S(=O)(=O)Nc2ccc3c(c2)CC(=O)N([C@H](C)CO)C[C@H](C)[C@@H](CN(C)S(=O)(=O)c2cn(C)cn2)O3)cc1	4.7	8.1	0.7
CCNC(=O)C[C@H]1C=C[C@H](NS(=O)(=O)c2ccc(C)cc2)[C@@H](CO)O1	-2.1	2.3	-2.6

Arranged by length of the SMILES (rising): part of the list above
SMILES	rRNA inh HTS	rRNA inh HTS OD600	rRNA inh HTS RFP
COCC(=O)N1CC2(CCN(C(=O)c3cccnc3)CC2)c2c([nH]c3cc(OC)ccc23)[C@H]1CO	4.5	16.1	-2.1
C[C@@H]1CN([C@@H](C)CO)C(=O)c2cc(C#CC3CCCC3)cnc2O[C@H]1CN(C)C(=O)C1CCCCC1	0.1	-4.0	1.1
C[C@H]1CN([C@@H](C)CO)S(=O)(=O)c2ccc(-c3ccccc3)cc2O[C@@H]1CN(C)C(=O)C1CCC1	-4.6	-14.8	2.5
C[C@@H]1CN([C@@H](C)CO)C(=O)Cc2cc(NC(=O)c3ccncc3)ccc2O[C@@H]1CN(C)C(=O)NC1CCCCC1	2.4	0.1	-2.0
C[C@H]1CN([C@@H](C)CO)C(=O)c2cc(NS(=O)(=O)c3cn(C)cn3)ccc2O[C@H]1CN(C)C(=O)Nc1ccc(F)cc1	3.6	3.3	-3.1

Following part
SMILES	rRNA inh HTS	rRNA inh HTS OD600	rRNA inh HTS RFP
N#C[C@@H]1[C@H](c2ccccc2)[C@@H](CO)N1C(=O)c1ccccc1F	2.6	5.0	-2.9
COCC(=O)N1CC2(C1)[C@@H](c1ccc(-c3cccc(F)c3)cc1)[C@@H](CO)N2C(=O)C1CC1	-1.3	-5.2	3.1
Cc1noc(C)c1NC(=O)Nc1ccc2c(c1)CC(=O)N([C@H](C)CO)C[C@H](C)[C@H](CN(C)C(=O)NC1CCCCC1)O2	3.9	7.4	-3.7
COc1ccc(S(=O)(=O)N(C)C[C@H]2Oc3ccc(NC(=O)C4CCCCC4)cc3CC(=O)N([C@H](C)CO)C[C@@H]2C)cc1	-1.4	-5.6	3.3
COC(=O)C1=C(C)N(Cc2ccc(Cl)cc2)C(=S)NC1c1cccc(OC)c1 (stereo unspecified)	5.3	1.3	0.0
CO[C@H]1CN(C)C(=O)c2ccc(NC(=O)Nc3ccccc3)cc2OC[C@H](C)N(C(=O)Nc2c(C)noc2C)C[C@@H]1C	2.1	2.7	-0.6
CC(C)(C)c1cc2nc(NCc3cccc(Cl)c3)ccn2n1	-19.9	-48.5	1.9
COC(=O)c1cc2c(c3c4cc(OC)ccc4n(S(=O)(=O)c4ccc(OC)cc4)c13)C(=O)N(C)C2	7.6	13.1	7.4
CC(C)NC(=O)N(C)C[C@@H]1Oc2cc(C3=CCCCC3)ccc2S(=O)(=O)N([C@@H](C)CO)C[C@@H]1C	-1.7	-9.8	3.0
C[C@@H]1CN([C@H](C)CO)C(=O)c2cc(C#CCN(C)C)cnc2O[C@@H]1CN(C)C(=O)CCN1CCCCC1	-7.3	1.9	0.6
CCCC#Cc1ccc2c(c1)O[C@H](CN(C)C(=O)CC1CC1)[C@H](C)CN([C@@H](C)CO)S2(=O)=O	-33.2&-1.6	-34.2&-16.8	-2.0&2.2
O=[N+]([O-])c1ccc(COc2cccc(CO)c2)cc1	7.5	6.6	-3.3
COc1ccc(CNC(=O)C[C@@H]2C[C@@H]3c4cc(NC(=O)NC5CCCC5)ccc4O[C@@H]3[C@@H](CO)O2)cc1	4.1	2.3	-3.0
CN1[C@H](C(=O)NC2CCCCC2)[C@@H](CO)[C@@H]2Cn3c(ccc(/C=C/c4ccccc4)c3=O)[C@@H]21	-8.5	-36.0	27.7
CCCc1c(C(=O)N/N=C/c2ccc(C)o2)nnn1-c1nonc1N	-0.5	2.8	4.8
COc1ccccc1-c1cnc2c(c1)C(=O)N([C@H](C)CO)C[C@@H](C)[C@H](CN(C)C(=O)c1cccnc1)O2	-0.6	-5.7	-5.2
CCCCn1nnnc1C1(C)CCC(=O)N1Cc1ccco1 (stereo unspecified)	8.0	21.5	5.6
CC[C@@H]1CC=CC[C@H](C)Oc2ccccc2C(=O)N(C)[C@H](Cc2ccccc2)C(=O)N1 (mixture of isomers)	-6.4	-18.3	-6.0
COc1ccc(S(=O)(=O)Nc2ccc3c(c2)CC(=O)N([C@@H](C)CO)C[C@H](C)[C@@H](CN(C)Cc2ccc(C(=O)Nc4ccccc4N)cc2)O3)cc1	-1.4	0.0	-2.3
O=C(N[C@H]1CC[C@H](CCn2cc(-c3ccccc3)nn2)O[C@H]1CO)c1cnccn1	-1.1	1.9	1.4

Next part, starting with the last two of the part before.
SMILES	rRNA inh HTS	rRNA inh HTS OD600	rRNA inh HTS RFP
COc1ccc(S(=O)(=O)Nc2ccc3c(c2)CC(=O)N([C@@H](C)CO)C[C@H](C)[C@@H](CN(C)Cc2ccc(C(=O)Nc4ccccc4N)cc2)O3)cc1	-1.4	0.0	-2.3
O=C(N[C@H]1CC[C@H](CCn2cc(-c3ccccc3)nn2)O[C@H]1CO)c1cnccn1	-1.1	1.9	1.4
C/C=C/c1ccc([C@H]2[C@@H](CNC(=O)NC(C)C)N(C(=O)C3CC3)[C@H]2CO)cc1	-5.0	-7.1	-1.4
COC(=O)C[C@@H]1C[C@@H]2c3cc(NC(=O)c4ccc5c(c4)OCO5)ccc3O[C@@H]2[C@H](CO)O1	0.6	5.0	-0.5
C/C=C/c1ccc([C@H]2[C@@H](CO)N[C@@H]2CNC(=O)C2CCC2)cc1	2.0	-0.2	-1.3
C[C@H](CO)N1C[C@H](C)[C@H](CN(C)Cc2ccncc2)Oc2ncc(C#CC(C)(C)O)cc2C1=O	-1.2	8.1	-1.9
CC[C@@H]1C/C=C\C[C@H](c2ccc(F)cc2)NC(=O)CCC(=O)N1	0.7	8.2	-3.0
N#Cc1ccccc1S(=O)(=O)N1CCN(Cc2cccs2)CC1	6.2	-11.6	3.3
O=C(c1cccnc1)N1CC(=O)N2[C@H](CO)[C@@H](c3ccc(-c4ccc(F)cc4)cc3)[C@@H]2C1	7.6	8.4	8.2
C[C@H](CO)N1C[C@H](C)[C@@H](CN(C)C(=O)c2cnccn2)Oc2cc(Br)ccc2S1(=O)=O	5.2	6.0	-0.8
C[C@H](CO)N1C[C@H](C)[C@H](CN(C)C(=O)NC2CCCCC2)OCCCC[C@H](C)Oc2ccc(NC(=O)NC3CCCCC3)cc2C1=O	0.5	-5.4	1.3
COc1cc(Cn2c3ccc(NC(=O)CC(C)c4ccccc4)cc3c(=O)n2C)ccc1F (stereo unspecified)	7.5	-34.4	9.3
CO[C@H]1CN(C)C(=O)c2ccc(NS(C)(=O)=O)cc2OC[C@@H](C)N(C(=O)C2CCOCC2)C[C@@H]1C	1.2	1.2	0.0
CC1(C)CC(=O)C=C(c2ccc(COC(=O)c3ccc(-c4ccccc4)cc3)cc2)C1=O	0.5	10.6	0.5
C[C@@H]1CCCCO[C@@H](CN(C)C(=O)c2ccccc2)[C@@H](C)CN([C@H](C)CO)C(=O)c2cc(NC(=O)Nc3cccc4ccccc34)ccc2O1	-3.3	-0.3	-3.2

Assay outcomes deposited in PubChem BioAssay by Broad Institute.
